Menin-MLL FL inh – qHTS Assay for Inhibitors Targeting the Menin-MLL Interaction in MLL Related Leukemias: Competition With Fluorescein Labeled MLL-derived Peptide; Fluorescence polarization, fluorescein-MLL peptide displacement from menin; FP activity change, % at 61.4 µM; 290,000 tested, under 10 active; inconclusive = falling polarisation curve, or a change in total fluorescence; inactive = total fluorescence flat and polarisation flat or rising; no compound was filed as active; the % refers to the polarisation; negative = inhibition;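 also: % of control where 0% means no effect; inhibitors lower the polarisation; unlabelled MLL peptide was the positive control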
Sfp inh – qHTS Assay for Inhibitors of Bacillus subtilis Sfp phosphopantetheinyl transferase (PPTase) | 4'-phosphopantetheinyl transferase ffp (Bacillus subtilis), Q9F4F7 | Biochemical Sfp PPTase activity, qHTS | Potency, µM, for the others: max response, negative = inhibition, hits mostly inhibitors | 310,000 compounds, 3.5% hits | AID 1490, 2009; active = well fitted inhibition curve with a large enough effect; inconclusive = small, poorly fitted or top-dose-only effect, or another doubt; inactive = no such curve, though single readings can be large or run the other way;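 also: the enzyme is Sfp with the accession as filed and its product quenches rhodamine fluorescence; potency is read from the fitted curve at half-maximal effect; 0% = enzyme reaction without inhibitor and -100% = no enzyme wells; top concentration of the series not given in the record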
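Step 1, compound plus 15 nM Sfp-PPTase, 15 min, room temperature. Step 2, add rhodamine-CoA (5 uM) and BHQ-2-YbbR (12.5 uM). Step 3, read 525/598 nm fluorescence at 0 and 30 min.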
* marks the source's active call; other numbers are inactive results; ? = inconclusive; & = joins results of further samples; [ ] = another dose, or the depositor's remark. The list is partial; the hit share may differ from the screen's.

SMILES	Menin-MLL FL inh	Sfp inh
CC(C)C[C@H](NC(=O)[C@H](CC(C)C)NC(=O)[C@@H](Cc1c[nH]c2ccccc12)NC(=O)[C@H](Cc1ccccc1)NC(=O)[C@@H](Cc1c[nH]c2ccccc12)NC(=O)[C@H](CCC(N)=O)NC(=O)[C@H](CCC(N)=O)NC(=O)[C@@H]1CCCN1C(=O)[C@H](CCCCN)NC(=O)[C@@H]1CCCN1C(=O)[C@@H](CCCNC(=N)N)NC(=O)[C@@H]1CCCN1C(=O)CNC(=O)[C@H](CC(C)C)NC(=O)[C@H](CC(C)C)NC(=O)[C@H](Cc1ccc(O)cc1)NC(=O)CNC(=O)[C@H](C)NC(=O)[C@H](CO)NC(=O)[C@H](CC(N)=O)NC(=O)[C@H](CC(C)C)NC(=O)[C@@H](NC(=O)[C@H](Cc1c[nH]c2ccccc12)NC(=O)CN)[C@@H](C)O)C(N)=O	-3.7	-27.4%
CC(=O)OC1CC[C@]2(C)C(CC[C@@]3(C)C2C(=O)C=C2C4C(C)C(C)CC[C@@]4(C(=O)O)CCC23C)C1(C)C (stereo partly specified)	-4.2	14.4%
NCCS(=O)O	?	-15.8%&-1.6%
Cc1nc(NC2CCCCC2)c2nc(-c3ccccc3)n(CCN3CCCC3)c2n1	-6.7	-0.5%
CSCC[C@H](NC(=O)[C@H](Cc1ccccc1)NC[C@@H](NC[C@@H](N)CS)C(C)C)C(=O)O	?	-23.6%&-12.1%
CS(=O)(=O)Nc1cccc(-c2ccc3ncnc(NC4CCNCC4)c3c2)c1	-2.5	17.9%
CC(C)=CCOc1ccc(/C=C/C(=O)c2ccc(OCC=C(C)C)cc2OCC(=O)O)cc1	3.0	?
C/C=C1\COC(C(=O)NCCN2CCOCC2)(C(F)(F)F)C=C1C=C(C)C (stereo unspecified)	1.6	-5.4%
Cc1ccc(SCC(CC(C)C)N2CCN(C)CCC2=O)cc1 (stereo unspecified)	4.6	8.6%
O=C(NCc1ccccc1)C1(C(F)(F)F)C/C(=C\Cc2ccccc2)CCCO1 (stereo unspecified)	1.2	4.1%
C/C=C(\C)C(=O)OC1[C@@H]2C=C3C4CC(=O)OC(c5ccoc5)[C@]4(C)CCC3[C@@](C)(C2=O)C(C(O)C(=O)OC)C1(C)C (stereo partly specified)	0.0	4.4%
c1nc(N2CCNCC2)c2cc(-c3ccc4c(c3)OCO4)ccc2n1	-7.5	-4.1%
COc1cc(OC)cc(C2=Nn3c(nnc3-c3cccc(OC)c3)SC2)c1	-0.1	-2.9%
CC1OC(OCC2OC(Oc3c(-c4ccc(OCCO)c(OCCO)c4)oc4cc(OCCO)cc(O)c4c3=O)C(O)C(O)C2O)[C@@H](O)C(O)C1O (stereo partly specified)	4.1	16.3%
c1ccc(-c2cccc(N3CC[C@@]4(CCCNC4)C3)c2)cc1	-4.7	-26.4%
CCOC(=O)CN1C(=O)N[C@@H](c2ccccc2)[C@H](C(=O)OC)[C@H]1C	4.4[11.7 µM]	-1.5%
Cc1nc(N2CCOCC2)c2nc(-c3ccccc3)n(CCN3CCOCC3)c2n1	7.9	14.3%
CCCCC(=O)OC1CCC2C3CCc4cc(O)ccc4C3CC[C@]12C (stereo partly specified)	0.9	22.6%
C[C@@H](C(=O)NCc1cccc2ccccc12)[C@H]1C[C@]1(C)[C@H](NC(=O)OCc1ccccc1)c1ccccc1	8.1	30.2%[activator]
COc1cccc(Cn2c(=O)c(C)nc3cnc(OCc4ccccc4)nc32)c1	1.5	-16.1%
CCCCC/C=C\C[C@@H]1O[C@H]1/C=C/C(O)C/C=C\CCCC(=O)O (stereo partly specified)	1.4	4.7%
Cc1ccc2[nH]c(-c3ccc(F)cc3F)cc(=O)c2c1	?	?
COC(=O)C1=COC(O[C@H]2OC(CO)[C@H](O)C(O)C2O)[C@H]2C1C(=O)C[C@@H]2C (stereo partly specified)	?	2.7%
CCCCCCCCCCCCCCCCCCO	-3.8	14.6%
C=CCN1c2ccccc2[C@]23C[C@@H](C(=O)OC)N(S(=O)(=O)c4ccc(C)cc4)C2=NC(C(=O)OC)=C(C(=O)OC)[C@H]13	1.4[11.7 µM]	-7.9%
CCCCS(=O)(=O)N1CCc2nc(-c3ccc(OC)cc3C)c3c(c2C1)CO[C@@H](c1ccccc1)C3	6.6[11.7 µM]	3.6%
COc1cccc(Nc2ncc3ncc(=O)n(Cc4cccs4)c3n2)c1	2.2	-4.5%
NCC1O[C@@H](O[C@H]2C(O)C(O[C@@H]3C(O[C@H]4OC(CO)C(O)C(O)C4N)C(N)CC(N)[C@H]3O)O[C@@H]2CO)C(N)C(O)C1O (stereo partly specified)	-6.7	10.3%
COc1ccc(C(CCN2CCCC(C)C2)c2c(O)cc(OC)cc2OC)cc1 (stereo unspecified)	-2.5	-1.4%
O=S(=O)(c1ccccc1)N1CCC2(CCN(c3ncccn3)CC2)CC1	-2.7	0.6%
Cc1cccc(C2=NN(c3ccccc3)[C@H](CO)[C@H]2C)c1	?	-28.9%
CCOC(=O)NC[C@H](Cc1ccc(OCCc2nc(-c3ccccc3)oc2C)cc1)N/C(C)=C\C(=O)c1ccc(C(F)(F)F)cc1	2.1	10.8%
CC[C@H](C)[C@H](NC(=O)[C@H](Cc1ccccc1)NC(=O)[C@H](C)NC(=O)[C@H](CC(=O)O)NC(=O)[C@H](CCCCN)NC(=O)[C@H](CO)NC(=O)[C@@H]1CCCN1C(=O)[C@@H]1CCC(=O)N1)C(=O)NCC(=O)N[C@@H](CC(C)C)C(=O)N[C@@H](CCSC)C(N)=O	-0.1	3.4%
FC(F)OC(Cl)C(F)(F)F (stereo unspecified)	?	33.8%
COCC(=O)N1CCC[C@@]2(CCN(C(=O)Nc3cccc(C#N)c3)C2)C1	2.7	11.5%
COC(=O)C1=C(C)[C@@H](O)[C@@H](C)[C@H](c2c(OC)c(OC)c(C)c(OC)c2OC)O1	-4.5[11.7 µM]	5.7%
NC(=O)N/N=C\c1ccc([N+](=O)[O-])o1	-4.3[24.8 µM]	3.1%
FCOC(C(F)(F)F)C(F)(F)F	-1.3	11.5%
COC(=O)CC1Oc2cc3oc4c(c3cc2O1)C(=O)CC(C)(C)C4 (stereo unspecified)	1.1	-14.2%
C=CC1=C2C=C(C3CC3)N(C3CCCC3)C=C2C(=O)C(C)(OC(=O)c2ccco2)C1=O (stereo unspecified)	-2.5[11.7 µM]	0.4%
COC(=O)CCCC1=CC2=CC(=O)C(C)(O)C(=O)C2=CO1 (stereo unspecified)	4.1	-21.4%
C=CC[C@@H]1C=C[C@H](O/N=C2\c3cc(OC)ccc3O[C@H](c3cccc(OC)c3)[C@H]2O)[C@H](CO)O1	-1.4[11.7 µM]	-4.4%
O=c1c(-c2ccc(Cl)cc2)nc2cnc(N3CCOCC3)nc2n1Cc1ccc(F)cc1	-1.1	20.5%
CCCCc1nc2c(c3c1C[C@H](C)OC3)CN(C(=O)C1CCCCC1)CC2	1.6[11.7 µM]	19.6%
C[C@@H]([C@H](O)c1ccc(O)cc1)N1CCC(Cc2ccccc2)CC1	-9.4	?
C=C1CCN(C(Cc2ccccc2)C(=O)N2CCOCC2)S(=O)(=O)c2ccccc21 (stereo unspecified)	-1.8	8.5%
CCOC(=O)C(C(=O)c1ccccc1)[C@H](CCc1ccccc1)NC(=O)OC (stereo partly specified)	-6.7	3.7%
COC(=O)[C@@]1(Cc2ccc(F)cc2)[C@H]2c3cc(C(=O)N(C)C)n(CCc4ccc(O)c(O)c4)c3C[C@H]2CN1C(=O)c1ccccc1	-12.5	-28.6%
CS(=O)(=O)Nc1cccc(-c2nc(NC3CC3)c3ccccc3n2)c1	-4.4	11.2%
COc1ccc2[nH]c(-c3ccccc3)cc(=O)c2c1	-4.8[94.6 µM]	3.5%
The list goes on.
SMILES	Menin-MLL FL inh	Sfp inh
COc1cc(CCN2C(=O)N[C@@H](c3ccccc3)C(C(C)=O)=C2C)cc(OC)c1OC	-7.6	-16.9%
COc1ccc(O[C@H]2C=C[C@@H](c3ccccc3)O[C@@H]2CO/N=C\[C@@H](C)[C@H](OCc2ccccc2)C(C)C)cc1	2.6[11.7 µM]	-4.4%
CN1CCN(c2ncc3nc(-c4cccc(C#N)c4)c(=O)n(CCC#N)c3n2)CC1	3.8	9.3%
O=C1CC(c2ccc3c(c2)OCO3)c2ccc(O)cc2O1 (stereo unspecified)	-9.0[94.6 µM]	15.8%
OCC(O)CO	3.1	9.8%
COc1ccc(-n2c(=O)c(-c3ccc(Cl)cc3)nc3cnc(N(C)C)nc32)cc1	?	-0.8%
O=c1c(-c2cc(F)cc(F)c2)nc2cnc(N3CCOCC3)nc2n1C[C@H]1CCCO1	-2.9	3.6%
C=CCOC(=O)N[C@@H](c1cccs1)C(C(C)=O)C(C)=O	0.0	1.2%
C[C@H](CN1c2ccccc2Sc2cccnc21)N(C)C	-8.8	12.7%
C[C@H](c1ccccc1)N1C(=O)[C@H]2[C@@H]3[C@H](O)[C@H](O)CC(=O)[C@H]3CC[C@H]2C1=O	-2.3[11.7 µM]	-1.1%
N[C@@](C(=O)O)(c1ccc(P(=O)(O)O)cc1)C1CC1	?	-3.2%
O=C1c2ccccc2C(=O)C1c1ccc(F)cc1	-1.1	10.2%
COc1ccc(C2CC(c3ccccc3)Oc3ccc(C(C)(C)C)cc32)cc1 (stereo unspecified)	2.1&-1.3	-9.7%&25.2%
CC[C@H](C)[C@H](NC(=O)CNC(=O)[C@H](C)NC(=O)[C@H](C)N)C(=O)NCC(=O)N[C@H](C(=O)N[C@@H](CC(C)C)C(=O)N[C@H](C(=O)N[C@H](C(=O)O)C(C)C)[C@@H](C)O)[C@@H](C)CC	2.6	3.8%
CC(C)C[C@H](NC(=O)CNC(=O)[C@H](CCC(N)=O)NC(=O)[C@H](CC(C)C)NC(=O)[C@H](CC(C)C)NC(=O)[C@H](CCCNC(=N)N)NC(=O)[C@H](CCC(N)=O)NC(=O)[C@H](CC(C)C)NC(=O)[C@H](CCCNC(=N)N)NC(=O)[C@H](C)NC(=O)CNC(=O)[C@H](CCC(=O)O)NC(=O)[C@H](CCCNC(=N)N)NC(=O)[C@H](CC(C)C)NC(=O)[C@H](CCCNC(=N)N)NC(=O)[C@H](CO)NC(=O)[C@H](CC(C)C)NC(=O)[C@H](CCC(=O)O)NC(=O)[C@H](CO)NC(=O)[C@@H](NC(=O)[C@H](Cc1ccccc1)NC(=O)[C@@H](NC(=O)CNC(=O)[C@H](CC(=O)O)NC(=O)[C@H](CO)NC(=O)[C@@H](N)Cc1cnc[nH]1)[C@@H](C)O)[C@@H](C)O)C(=O)N[C@H](C(N)=O)C(C)C	1.1	1.4%
COc1cc2oc(-c3ccccc3)cc(=O)c2cc1O	-8.6	2.4%
CCOC(=O)N/N=C1/C[C@@H](O)[C@@H](O)[C@@H]2[C@@H]3C(=O)N([C@@H](C)c4ccccc4)C(=O)[C@H]3CC[C@@H]12	0.7[11.7 µM]	-5.5%
N[C@H](C(=O)O)[C@@H]1[C@@H](C(=O)O)C1(F)F	-8.6	89.1µM*

Entries from the list above with a COOH group:
SMILES	Menin-MLL FL inh	Sfp inh
CC(=O)OC1CC[C@]2(C)C(CC[C@@]3(C)C2C(=O)C=C2C4C(C)C(C)CC[C@@]4(C(=O)O)CCC23C)C1(C)C (stereo partly specified)	-4.2	14.4%
CSCC[C@H](NC(=O)[C@H](Cc1ccccc1)NC[C@@H](NC[C@@H](N)CS)C(C)C)C(=O)O	?	-23.6%&-12.1%
CC(C)=CCOc1ccc(/C=C/C(=O)c2ccc(OCC=C(C)C)cc2OCC(=O)O)cc1	3.0	?
CCCCC/C=C\C[C@@H]1O[C@H]1/C=C/C(O)C/C=C\CCCC(=O)O (stereo partly specified)	1.4	4.7%
CC[C@H](C)[C@H](NC(=O)[C@H](Cc1ccccc1)NC(=O)[C@H](C)NC(=O)[C@H](CC(=O)O)NC(=O)[C@H](CCCCN)NC(=O)[C@H](CO)NC(=O)[C@@H]1CCCN1C(=O)[C@@H]1CCC(=O)N1)C(=O)NCC(=O)N[C@@H](CC(C)C)C(=O)N[C@@H](CCSC)C(N)=O	-0.1	3.4%
N[C@@](C(=O)O)(c1ccc(P(=O)(O)O)cc1)C1CC1	?	-3.2%
CC[C@H](C)[C@H](NC(=O)CNC(=O)[C@H](C)NC(=O)[C@H](C)N)C(=O)NCC(=O)N[C@H](C(=O)N[C@@H](CC(C)C)C(=O)N[C@H](C(=O)N[C@H](C(=O)O)C(C)C)[C@@H](C)O)[C@@H](C)CC	2.6	3.8%
CC(C)C[C@H](NC(=O)CNC(=O)[C@H](CCC(N)=O)NC(=O)[C@H](CC(C)C)NC(=O)[C@H](CC(C)C)NC(=O)[C@H](CCCNC(=N)N)NC(=O)[C@H](CCC(N)=O)NC(=O)[C@H](CC(C)C)NC(=O)[C@H](CCCNC(=N)N)NC(=O)[C@H](C)NC(=O)CNC(=O)[C@H](CCC(=O)O)NC(=O)[C@H](CCCNC(=N)N)NC(=O)[C@H](CC(C)C)NC(=O)[C@H](CCCNC(=N)N)NC(=O)[C@H](CO)NC(=O)[C@H](CC(C)C)NC(=O)[C@H](CCC(=O)O)NC(=O)[C@H](CO)NC(=O)[C@@H](NC(=O)[C@H](Cc1ccccc1)NC(=O)[C@@H](NC(=O)CNC(=O)[C@H](CC(=O)O)NC(=O)[C@H](CO)NC(=O)[C@@H](N)Cc1cnc[nH]1)[C@@H](C)O)[C@@H](C)O)C(=O)N[C@H](C(N)=O)C(C)C	1.1	1.4%
N[C@H](C(=O)O)[C@@H]1[C@@H](C(=O)O)C1(F)F	-8.6	89.1µM*
